HPGD block = HPGD (human) dehydrogenase inhibition. P15428. purified HPGD, NADH fluorescence kinetic, PGE2 substrate. Potency, µM, inactives show at the top dose activity change, negative = inhibition, hits mostly inhibitors. 4.3% of 150,000 active. AID 894; active = well fitted inhibition curve with a large enough effect (not every such curve was filed as active); inconclusive = small, poorly fitted or top-dose-only effect, or another doubt; inactive = no such curve, though single readings can be large or run the other way;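 also: top concentration of the series not given in the record; plate controls included wells without enzyme; inactives centre near -10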
Target sequence (P15428 whole entry, looked up): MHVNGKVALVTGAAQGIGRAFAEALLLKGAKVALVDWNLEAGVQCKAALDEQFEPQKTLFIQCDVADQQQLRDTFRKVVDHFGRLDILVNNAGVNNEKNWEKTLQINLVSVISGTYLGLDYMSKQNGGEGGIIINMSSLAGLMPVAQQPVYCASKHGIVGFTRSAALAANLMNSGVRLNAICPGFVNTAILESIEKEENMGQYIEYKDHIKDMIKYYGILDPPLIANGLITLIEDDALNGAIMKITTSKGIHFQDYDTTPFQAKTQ
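NADH formation kinetics: reaction with 30 uM PGE2 and 1 mM NAD+ (final), 20 nM enzyme, Tris-HCl pH 8 with Tween 20, after 15 min compound preincubation at room temperature. Fluorescence change, last versus first of five reads.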
* hit, by the source's call; ? = inconclusive; & = joins results of further samples. % is scaled to controls: 0 for no effect and ±100 for the full control effect; potency is read from the fitted curve at half-maximal effect.

molecule,HPGD block
O=C(COc1ccc(F)cc1)N(c1ccccn1)C1CCCCC1,-9%
COC(=O)N/N=C(\C)c1ccc(Br)cc1,-3%
C=C(C)CNC(=S)NNC(=O)CCn1c2ccccc2c2ccccc21,-4%
Cn1c(SCc2nc3ccccc3s2)nnc1-c1cccs1,-26%
Oc1ccc(-c2csc(-c3c[nH]c4ccccc34)n2)c(O)c1,?
CC(C)(C)c1nc(SCC(=O)Nc2ccc(N3CCOCC3)cc2)c2ccccc2n1,-16%
CCC(C)NC(=O)CN1C(=O)CC(C)(C)S(=O)(=O)c2ccccc21 (centres undefined),-6%
Cc1cc(C)cc(NC(=O)c2cccc(NC(=O)C3C4CC5OC(=O)C3C5C4)c2)c1 (centres undefined),-4%
CC#C[C@]1(O)CC[C@H]2[C@@H]3CCC4=CC(=O)CCC4=C3[C@@H](c3ccc(N(C)C)cc3)C[C@@]21C,0%
CCC1(C)CC(c2csc(N)n2)CCO1 (centres undefined),-6%
CC(=O)Nc1ccc(/C(C)=N/NC(=O)C2CC2c2ccccc2)cc1 (centres undefined),-5%
COc1ccc(-c2cc(C(=O)N3CC4(C)CC3CC(C)(C)C4)no2)cc1OC (centres undefined),-25%
O=c1c(O)cccc2cc(O)c(O)c(O)c12,5µM*
CCCCn1nc2cc(C(=O)NCc3ccc4c(c3)OCO4)ccc2c1OCC,?
O=C(CSc1nc(-c2ccccc2)cs1)Nc1ccccc1[N+](=O)[O-],-8%

(further entries)
molecule,HPGD block
CCOC(=O)C(NC(=O)Nc1ccc(F)cc1F)(Oc1ccccc1)C(F)(F)F (centres undefined),-16%
CCc1ccc(C(=O)NCc2cccs2)s1,18µM*
N#Cc1c(N)nc2c3c(sc(=N)c2c1N)NC(=O)CC3c1ccccc1 (centres undefined),-24%
CCNC(=O)NCCc1c[nH]c2ccc(Cl)cc12,-26%
CCc1nnc(NC(=O)CSc2nnc(-c3ccoc3C)n2-c2ccc(C)cc2)s1,-12%
COc1ccc(C2(c3ccc(OC)cc3)NC(=O)N(Cn3nnc4ccccc4c3=O)C2=O)cc1,-19%
CCn1c(/C=C/c2ccc([N+](=O)[O-])o2)nc2ccccc2c1=O,-5%
Cc1ccc(-n2c(N)c(C(=O)NCc3cccnc3)sc2=S)cc1,25µM*
Cn1nc(C(=O)N2CCN(S(=O)(=O)c3ccccc3)CC2)c2ccccc2c1=O,-2%
Cc1cc(COc2ccccc2O)on1,-1%
O=C(CN1CCN(S(=O)(=O)c2ccc(Br)cc2)CC1)N/N=C/c1cc([N+](=O)[O-])ccc1Cl,-9%
COc1ccc(C(=O)NC2CCN(C(=S)Nc3cc(C)ccc3C)CC2)cc1,-1%
COc1ccc(NC(=O)c2cc(OC)c(OC)c(OC)c2)cn1,-4%
O=C(O)c1ccc(N2C(=O)CC(SC(=Nc3ccccc3)Nc3ccccc3)C2=O)cc1 (centres undefined),-10%
COc1ccc(C(=O)N(CN2CCCC2=O)c2ccccc2OC)cc1OC,-8%

Other results.
molecule,HPGD block
Cc1[nH]c2ccc(-c3n[nH]c(=S)n3-c3ccccc3)cc2c1C,?
CCN(CC)c1ccc(NC(=O)COC(=O)CSc2ccc(Br)cc2C)cc1,-30%
Cc1cc(NC(=O)CCSc2nc(-c3ccco3)cc(C(F)(F)F)n2)no1,-6%
COc1ccc(Cc2nc3ccccc3n2CC(=O)N/N=C/c2ccccc2)cc1OC,-12%
O=C(c1ccc2c(=O)n3c(nc2c1)CCCCC3)N1CCN(C(c2ccccc2)c2ccccc2)CC1,-3%
O=C(O)C1=CCCN(CCON=C(c2ccccc2)c2ccccc2)C1,-5%&-4%
C=CCOc1ccc(/C(O)=C2/C(=O)C(=O)N(CCN3CCOCC3)C2c2ccc(C)cc2)cc1 (centres undefined),-14%
CC(=O)Oc1ccc(OC(C)=O)c(SCCCCCN2CCOCC2)c1,18µM*
Cc1c(C=O)c(C=O)c(C)n1Cc1ccccc1,-14%
COC(=O)c1sccc1NC(=O)CSc1ccccc1NS(=O)(=O)c1cc(Cl)ccc1Cl,-2%
CCN(CC)S(=O)(=O)c1cccc(-c2nnc(SCC#N)n2Cc2ccccc2)c1,-6%
COCCNC(=O)c1cc2c(-c3ccccc3F)nn(C)c2s1,?
COc1ccccc1C(=O)n1nc(-c2ccc(Cl)cc2)nc1N,-10%
NC1CONC1=O (centres undefined),-8%&-10%
O=C(c1ccco1)N1CCN(c2ncnc3c2[nH]c2ccc(Cl)cc23)CC1,?

Next structures
molecule,HPGD block
COc1ccc(C2/C(=C(/O)c3ccccc3)C(=O)C(=O)N2c2ccccn2)c(OC)c1 (centres undefined),-15%
Cc1nc2ccccc2c2oc(C(=O)NCc3ccc4c(c3)OCO4)cc12,-12%
Cc1ccc(C2CC(=O)N3CN(Cc4ccco4)CSC3=C2C#N)cc1 (centres undefined),16µM*
Cc1cc(Cl)ccc1OCCCC(N)=O,4%
CC(NC(=O)COC(=O)c1ccccc1Nc1ccccc1)c1ccccc1 (centres undefined),-29%
Cc1ccc(S(=O)(=O)NCc2cn3ccsc3n2)c(C)c1,-7%
CCC(C)NCCCCOc1ccc(C)cc1[N+](=O)[O-] (centres undefined),1%
N#CC1(c2ccccc2)CCCN1C(=O)c1ccccc1Cl (centres undefined),-4%
COC(=O)c1ccc(CSc2nnc(SCc3ccc(C(=O)OC)o3)s2)o1,-20%
Cc1ccc(S(=O)(=O)N2CCC(C(=O)NCCc3ccccc3)CC2)cc1,0%
Cc1sc2nc(CSc3nnnn3-c3ccc(Cl)cc3)[nH]c(=O)c2c1C,-15%
O=C(COc1ccccc1C(=O)c1cnn(-c2ccccc2)c1)Nc1ccc2ccccc2c1,-12%
CCCC(=O)Nc1ccc(NC(=O)c2ccccc2Cl)nc1,-2%
O=C(CCCCO)CCCCCCCC[C@H]1N[C@H](CO)[C@H](O)[C@@H]1O[C@@H]1O[C@H](CO)[C@@H](O)[C@H](O)[C@H]1O,-26%
COc1ccc(C2/C(=C(\O)c3ccc4c(c3)OCCO4)C(=O)C(=O)N2CCCN(C)C)c(OC)c1 (centres undefined),-20%

Later entries.
molecule,HPGD block
Cc1cccc(NC(=O)c2ccc(S(=O)(=O)N(C)C)cc2)c1,-4%
CN(C)C(=O)c1noc2cc([N+](=O)[O-])ccc12,-7%
Cc1onc(-c2ccccc2Cl)c1C(=O)Nc1cccc(-c2cn3cccnc3n2)c1,?
COc1ccc(N(C(=O)c2ccccc2OC(C)=O)C(C)C2CC2)cc1 (centres undefined),-8%
COc1ccc(-n2ccc(=O)c3c2CCCC3=O)cc1,-19%
COC(=O)CSc1nc2ccc(NC(C)=O)cc2s1,-1%
COC(=O)c1ccc(NC(=O)CCS(=O)(=O)c2ccc(Br)s2)cc1,-13%
CCC(=O)Nc1ccc(N2CCN(C(=O)c3ccccc3C)CC2)cc1,-6%
COc1ccc(OCC(=O)NNC(=O)Cc2coc3cc(OC)ccc23)cc1,-12%
COc1ccccc1-n1c(SCC(=O)Nc2ccccc2F)nc2[nH]ncc2c1=O,-8%
O=C(c1ccncc1)N1CCC2(CCN(Cc3ccncc3)CC2)CC1,-3%
Cc1ccc(C(=O)N/C(=C/c2ccc(-c3cc(C(F)(F)F)ccc3Cl)o2)C(=O)NCc2cccnc2)cc1,-29%
Cc1cc2nc(-c3ccc(SCC(=O)Nc4ccc(S(=O)(=O)N5CCCC5)cc4)nc3)[nH]c2cc1C,?
COc1ccc(O)c(/C=N/Nc2nc(Nc3ccccc3)nc(-n3nc(C)cc3C)n2)c1,-14%
N#C/C(=C/c1ccc(-c2ccc(C(=O)O)c(Cl)c2)o1)C(=O)NCC1CCCO1 (centres undefined),-19%

No new results follow: entries from further up.
molecule,HPGD block
O=C(CCCCO)CCCCCCCC[C@H]1N[C@H](CO)[C@H](O)[C@@H]1O[C@@H]1O[C@H](CO)[C@@H](O)[C@H](O)[C@H]1O,-26%
COc1ccc(C2/C(=C(\O)c3ccc4c(c3)OCCO4)C(=O)C(=O)N2CCCN(C)C)c(OC)c1 (centres undefined),-20%
Cc1cccc(NC(=O)c2ccc(S(=O)(=O)N(C)C)cc2)c1,-4%
CN(C)C(=O)c1noc2cc([N+](=O)[O-])ccc12,-7%
Cc1onc(-c2ccccc2Cl)c1C(=O)Nc1cccc(-c2cn3cccnc3n2)c1,?
COc1ccc(N(C(=O)c2ccccc2OC(C)=O)C(C)C2CC2)cc1 (centres undefined),-8%
COc1ccc(-n2ccc(=O)c3c2CCCC3=O)cc1,-19%
COC(=O)CSc1nc2ccc(NC(C)=O)cc2s1,-1%
COC(=O)c1ccc(NC(=O)CCS(=O)(=O)c2ccc(Br)s2)cc1,-13%
CCC(=O)Nc1ccc(N2CCN(C(=O)c3ccccc3C)CC2)cc1,-6%
COc1ccc(OCC(=O)NNC(=O)Cc2coc3cc(OC)ccc23)cc1,-12%
COc1ccccc1-n1c(SCC(=O)Nc2ccccc2F)nc2[nH]ncc2c1=O,-8%
O=C(c1ccncc1)N1CCC2(CCN(Cc3ccncc3)CC2)CC1,-3%
Cc1ccc(C(=O)N/C(=C/c2ccc(-c3cc(C(F)(F)F)ccc3Cl)o2)C(=O)NCc2cccnc2)cc1,-29%

New compounds follow
molecule,HPGD block
CCN(CC)CCOC(=O)C(c1ccccc1)C1CCCCC1 (centres undefined),-2%
COC(=O)c1ccccc1NC(=O)CNC(=O)c1ccco1,-27%
CC1CCc2nn(CC(=O)NCc3ccco3)cc2C1 (centres undefined),-9%
O=C(NCc1ccccc1)C1(c2ccccc2)CCN(S(=O)(=O)c2ccccc2)CC1,-13%
NC(C(=O)N[C@@H]1C(=O)N2C(C(=O)O)=C(Cl)CS[C@H]12)c1ccccc1 (some centres undefined),-26%
CN(CCO)c1cc(N2CCC3(CC2)OCCO3)c2nonc2c1[N+](=O)[O-],-5%
CC1CCC2(CC1)NC(=O)N(CC(=O)c1cccn1C)C2=O (centres undefined),-8%
CC(C)(C)C(=O)NC(=S)Nc1ccccc1C(=O)Nc1ccccc1,-3%
CC12CCC(C(=O)Nc3nccs3)(OC1=O)C2(C)C (centres undefined),-5%
CCCc1c2ccccc2nc2ccccc12,?
COc1cc(-c2c(C#N)c(=O)[nH]c3c2c(C)nn3-c2ccccc2)ccc1O,?
CC(C)(C)c1ccc(OCCNC(=S)NC(=O)c2cccnc2)cc1,-13%
C=CCN(c1ccc(C(=O)N2CCN(c3ccc(F)cc3)CC2)cc1)S(C)(=O)=O,7%
COc1ccc(Cn2nnnc2CN2CCc3ccccc32)cc1,-9%
COc1ccc(C2NC(=O)c3n[nH]c(C)c32)c(OC)c1 (centres undefined),-1%

Other results
molecule,HPGD block
O=C(NC1CCS(=O)(=O)C1)C1CCCN(S(=O)(=O)c2ccc(Cl)cc2)C1 (centres undefined),-10%
CN(/N=C/c1cc([N+](=O)[O-])ccc1O)c1ccccc1,-10%
O=C(NC1CCCCCCC1)C1CCN(c2nc3ccccc3o2)CC1,-15%
CCOC(=O)c1c(C2CCN(C(=O)OCC)CC2)nc2ccccn12,-8%
Cc1cc(C)n(C(=O)c2ccc(C)c(F)c2F)n1,-15%
COc1ccc(NC(=O)NCCCN2CCCC2=O)cc1,-8%
Cn1cc(C(=O)N2CCN(C(=O)c3ccco3)CC2)c2c3ccccc3n(C)c2c1=O,?
OC[C@@H]1[C@@H](c2ccc(Cl)cc2)C(c2ccc(F)cc2)=NN1c1ccccc1,?
CCc1nc(OCc2ccco2)c2sc3nc4c(cc3c2n1)COC(C)(C)C4,-24%
CC(C)n1c(SC2CCOC2=O)nc2ccccc21 (centres undefined),0%
CCn1c(SCC(=O)Nc2cc(C)on2)nnc1-c1ccncc1,-6%
O=C(CN(C(=O)CCC(=O)Nc1ccccn1)c1ccc2c(c1)OCO2)NCc1ccco1,-11%
Nc1ccc(C(=O)Nc2ccc3nc(-c4cccnc4)[nH]c3c2)cc1,-2%
Cn1c(=O)c2cc(S(=O)(=O)NCCC(=O)Nc3ccc(Cl)cc3)ccc2n(C)c1=O,-12%
CC(C)C[C@@H](CC(=O)N[C@@H](CCC(=O)O)CC(=O)O)NC(=O)[C@@H]1CCCC[C@H]1NC(=O)C[C@@H](NC(=O)C[C@H](Cc1ccccc1)NC(=O)[C@@H]1CNCC[C@H]1N)C(C)C,-7%

Carrying on.
molecule,HPGD block
CCCCc1cc2c(cn1)=C(OC(=O)c1cccs1)C(C)(OC(=O)CC)C(=O)C=2 (centres undefined),-8%
Cc1ccc(Cn2c(-c3nonc3N)nc3ccccc32)cc1,-2%
CCOC(=O)C1=C(c2ccccc2)NC(SCC(N)=O)=C(C#N)C1c1cccnc1 (centres undefined),-5%
Cc1ccc(S(=O)(=O)N2CCCSCC2)cc1,-15%
Cc1cccn2c(=O)c(/C=C(\C#N)S(=O)(=O)c3ccccc3)c(N3CCN(C)CC3)nc12,-17%
COC(=O)CSc1nnc(-c2ccc(S(=O)(=O)NCc3cccs3)cc2)o1,-7%
CC(C)(C)c1ccc(C(=O)Nn2c(CCC(=O)O)ccc2-c2cccs2)cc1,-15%
Cc1nc2sc3c(O)cc(=O)[nH]c3c2c(C)c1C,?
N#CC(Cc1ccc(OC(F)F)cc1)c1nc2ccccc2[nH]1 (centres undefined),-8%
Cc1ccc(NC(=O)c2cccc(Cl)c2)nc1,-27%
CC(=O)CCC(=O)NCCc1ccccc1F,-24%
Cc1ccc(C)c(NS(=O)(=O)c2c(C)nn(C)c2C)c1,-11%
O=C(CN1CCN(c2ccccn2)CC1)Nc1ccc(F)cc1,-3%

Screening data from PubChem.

A portion of the library; the hit share may differ from the screen's.
